# Source: PubChem BioAssay
# A647 fluor: compound autofluorescence in A647 spectral region; max dye-equivalent concentration, M; Compound fluorescence, A647 channel (570/671 nm), Tris buffer; AID 592; 59,000 tested, under 10 active; active means above 1 µM dye equivalent; inconclusive means 0.1 to 1 µM; inactive means 0.1 µM or less;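 further: values scaled relative to a standard on each plate; highest value over a series up to 38 µM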
#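 Buffer was dispensed, compounds and Alexa 647 standards were pin-transferred, and plates sat 15 min at room temperature. Intensity at 570/671 nm was then converted to dye-equivalent concentration using the plate's A647 standard curve.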
# AID923: qHTS Assay for Allosteric/Competitive Inhibitors of Caspase-1: Spectroscopic Profiling in AFC Spectral Region; compound fluorescence, AFC spectral region (405/520 nm); almost no hit is shown here; Potency, µM (series often up to 57.5 µM), for inactives: top-dose fluorescence increase, most hits filed as activators; AID 923, 2007; actives 1.1% (n = 75,000); active means well fitted activation curve with a large enough effect; inconclusive means small, poorly fitted or top-dose-only effect;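 further: potency means the concentration at half of the fitted maximal effect; 0% is about no effect; scaled to a free AFC standard on each plate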
#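 Baseline compound fluorescence (AFC region, 405 nm ex/520 nm em) taken from the intercept of kinetic reads with 50 nM caspase-1 and 5 uM Ac-WEHD-AFC; normalized to an on-plate AFC standard curve; compounds titrated up to 57 uM.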
# Resorufin autofl: resorufin region autofluorescence; Compound fluorescence, resorufin region 547/598 nm, buffer; active compounds read high; max dye-equivalent concentration, M; actives 0.04% (n = 59,000); AID 588; active = above 10 nM dye equivalent; inconclusive = 1 to 10 nM; inactive = 1 nM or less; a few of its hits are not listed in these tables; further: highest value over a series up to 38 µM
#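 Dye-equivalent concentration values derive from comparing each well's 547/598 nm fluorescence against resorufin standards included on every plate. Incubation was 15 min at room temperature in 100 mM Tris, pH 8.0.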
# TSHR ag: TSH receptor (human) agonism | P16473 | HEK293-CNG-TSHR cells (CNG channel as cAMP sensor), membrane potential dye, cAMP | Potency, µM (series often up to 57.1 µM), without a hit: at the top dose activation, most hits filed as activators | actives 0.48% (n = 73,000); active = well fitted activation curve of enough size with the parental cells flat; inconclusive = any curve in the parental cells; inactive = parental cells flat and receptor cells flat or falling; further: potency means the concentration at half of the fitted maximal effect; % of control where 0% means no effect; weak receptor curves with flat parental cells got no call and are not listed
# Target sequence (P16473 whole entry, looked up): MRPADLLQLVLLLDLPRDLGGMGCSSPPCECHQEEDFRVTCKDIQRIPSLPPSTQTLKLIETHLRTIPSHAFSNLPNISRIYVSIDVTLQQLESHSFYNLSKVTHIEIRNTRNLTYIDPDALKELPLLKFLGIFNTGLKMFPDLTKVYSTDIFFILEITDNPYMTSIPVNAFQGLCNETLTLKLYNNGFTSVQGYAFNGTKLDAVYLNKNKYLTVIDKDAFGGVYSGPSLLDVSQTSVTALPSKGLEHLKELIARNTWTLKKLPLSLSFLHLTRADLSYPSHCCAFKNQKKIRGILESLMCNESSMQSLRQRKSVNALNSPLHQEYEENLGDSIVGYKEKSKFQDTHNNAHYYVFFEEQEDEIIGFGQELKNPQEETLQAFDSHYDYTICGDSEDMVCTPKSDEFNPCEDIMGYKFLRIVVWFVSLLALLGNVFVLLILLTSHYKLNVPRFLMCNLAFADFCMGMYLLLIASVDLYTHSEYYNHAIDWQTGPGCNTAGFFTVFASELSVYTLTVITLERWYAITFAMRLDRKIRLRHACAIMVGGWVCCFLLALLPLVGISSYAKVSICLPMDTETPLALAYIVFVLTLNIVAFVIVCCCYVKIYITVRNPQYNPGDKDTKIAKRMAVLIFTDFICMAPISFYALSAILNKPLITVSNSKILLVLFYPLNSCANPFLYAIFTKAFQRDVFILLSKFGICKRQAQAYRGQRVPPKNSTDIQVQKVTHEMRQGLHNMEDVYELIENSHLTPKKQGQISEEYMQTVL
#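 cAMP rise detected as CNG-channel membrane depolarization by fluorescent dye (emission 590 nm), 30 min after compound, following 60 min dye loading containing 100 uM RO 20-1724 at room temperature. Cells: TSHR/CNG HEK 293, with parental CNG HEK 293 as control.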
# A488 autofl: A488 region autofluorescence. max dye equivalency, M. AID 591. compound autofluorescence, A488 spectral region, dye equivalency; active compounds read high. actives 0.1% (n = 59,000); active = above 10 nM dye equivalent; inconclusive = 1 to 10 nM; inactive = 1 nM or less; about half of its hits are not listed in these tables;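 further: highest value over a series up to 38 µM; compound alone in buffer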
#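 Compound autofluorescence was read in 100 mM Tris pH 8.0 after 15 min at room temperature, ex 480 nm/em 540 nm. Intensities were converted to A488 dye-equivalent concentration using an on-plate six-point A488 standard curve.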
# * marks the source's active call; other numbers are inactive results; i = inactive; ? = inconclusive; · = no result given; [ ] = dose if it differs, or a comment.
SMILES,A647 fluor,AID923,Resorufin autofl,TSHR ag,A488 autofl
CCCCCCCC/C=C\CCCCCCCC(=O)N(CCO)CCO,·,0.2%,·,?,·
COc1ccc2[nH]c3nc(SCc4nnc(-c5ccccc5)o4)nnc3c2c1,1.2e-09,2.1%,i,8%,i
Cc1cc(S(=O)(=O)N2CCN(Cc3ccc4c(c3)OCO4)CC2)cc(C)c1N1CCCC1=O,·,1.4%,·,1%,·
CCOC(=O)N1CCN(C(=O)c2nn(-c3cc(OC)cc(OC)c3)c(=O)c3ccccc23)CC1,1e-09,-2.2%,i,?,i
O=C(c1ccco1)N1CCN(S(=O)(=O)c2ccc(S(=O)(=O)NC3CC3)cc2)CC1,1e-09,0.1%,i,9%,i
Cc1cc(C)c(NC(=O)CSc2nnc(-c3ccco3)n2N)c(C)c1,1.1e-08,-0.8%,i,14%,i
Cc1cc(C(=O)CSc2nn(-c3ccccc3)c(=S)s2)c(C)n1Cc1ccco1,1e-09,2.4%,i,5%,i
O=C(N1CCN(c2ccccc2)CC1)C(F)(F)C(F)(F)F,·,-2.4%,·,-6%[11.4 µM],·
CCCCn1c(SCC2CCCCO2)nc2cc(S(N)(=O)=O)ccc21 (stereo not given),1.3e-08,-1.2%,i,?,i
N#CC1=C(SCc2ccccc2Cl)NC(=O)C(C(N)=O)C1 (stereo not given),4.4e-09,-1.0%,i,-4%,i
CCn1c(N2CCN(CC(=O)c3c(C)n(C)c4ccccc34)CC2)nc2c1c(=O)[nH]c(=O)n2C,2.3e-08,0.9%,i,5%,i
CCn1c(/C(C#N)=C(\O)CCc2ccccc2)nc2ccccc21,1.9e-08,3.9%,i,9%,i
O=C1C2C3C=CC(C2C(=O)N1CN1CCOCC1)C1C2C(=O)N(CN4CCOCC4)C(=O)C2C31 (stereo not given),1.5e-08,-2.7%[11.5 µM],i,0%[11.4 µM],i
Cc1c(NC(=O)CSc2ccc3c(c2)OCCO3)c(=O)n(-c2ccccc2)n1C,8e-09,0.7%,i,-2%,i
CC1(O)C(=O)C=C2C=C(CCCCOCc3ccccc3)OC=C2C1=O (stereo not given),·,3.5%[11.5 µM],·,-3%[11.4 µM],·
CCOc1ccc(S(=O)(=O)Nc2ccc(S(=O)(=O)N3CCOCC3)cc2)cc1,1e-09,1.4%,i,-6%,i
O=C(COc1ccccc1)Nc1ccccc1N1CCN(c2ccccc2)CC1,1.2e-08,0.3%,i,?,i
CC(C)Oc1cc(O)c2c(c1)OCC=C2CCC(=O)O,4.4e-08,4.3%[11.5 µM],i,5%[11.4 µM],i
COc1ccc(-c2cc(N)n(S(=O)(=O)c3c(F)c(F)c(F)c(F)c3F)n2)cc1OC,2.3e-08,-0.8%,i,0.79µM*,i
Cc1nn(C)c(C)c1CN(C)C(=O)c1cc2nc(-c3ccco3)cc(C(F)(F)F)n2n1,2.4e-08,16%,i,?,i
Cc1cc(Cl)c(S(=O)(=O)Nc2ccc3c(c2)OCCO3)cc1OCC(N)=O,5.4e-09,-0.2%,i,-1%,i
O=C(Nc1ccon1)c1cccc(C(F)(F)F)c1,·,1.3%,·,-3%,·
O=C(CN1C2CCCC1CC(NC(=O)c1ccco1)C2)Nc1ccccc1C(F)(F)F (stereo not given),1e-09,-1.0%,i,9%,i
C=CCOC(=O)c1[nH]c2c(c1C)C(=O)CC(c1ccco1)C2 (stereo not given),·,3.6%,·,?,·
COc1ccc(-c2oc3ncn(CCN4CCOCC4)c(=N)c3c2-c2ccc(OC)cc2)cc1,2.1e-08,0.7%,i,?,i
SMILES,A647 fluor,AID923,Resorufin autofl,TSHR ag,A488 autofl
CC(=O)NCCc1ccc(S(=O)(=O)Nc2cccnc2)cc1,1.3e-08,-2.9%,i,-3%,i
CSCCC1NC(=O)N(CC(=O)Nc2ccc(N3CCCCC3)cc2)C1=O (stereo not given),1.8e-08,-0.3%,i,-6%,i
CCc1ccccc1NC1=NCC(=O)N1C1CCCCC1,1e-09,-0.5%,i,5%,i
COC(=O)c1ccccc1NC(=O)CSc1nc2ccccc2c(=O)[nH]1,7.7e-09,-0.8%,i,?,i
COc1ccc(Cl)cc1NC(=O)c1c(-c2ccccc2)noc1C,5.7e-09,-0.3%,i,·,i
Cc1ccc(-c2noc(C3CCCN(C(=O)c4ccccc4)C3)n2)o1 (stereo not given),8.9e-09,1.3%,i,?,i
CC1=C(C(=O)NC2CCCC(C)C2C)C2(CCCCC2)OC1=O (stereo not given),·,0.0%,·,11%,·
CCOC(=O)c1cc(-c2nnc(SCC(=O)Nc3ccc(F)cc3)o2)c(C)nc1C,1e-09,-1.5%,i,8%,i
COC(=O)c1cc(NC(=O)CN2C(=O)CSC2=O)ccc1Cl,1e-09,1.1%,i,-8%,i
COc1ccccc1N1CCN(C(=O)CSc2ccc3c(C)cc(C)nc3n2)CC1,1e-09,2.5%,i,14%,i
COc1ccc(CCNC2CCN(C)CC2)cc1OC,4.9e-09,0.6%,i,4%,i
COc1cccc(C2/C(=C(/O)c3ccncc3)C(=O)C(=O)N2CCCN(C)C)c1 (stereo not given),1e-09,-1.6%,i,1%,i
Cc1ccc(-c2nnc(N(C)C(=O)c3ccccn3)s2)cn1,1e-09,-1.5%,i,-3%,i
COc1cc(C(=O)Nc2ccc(S(=O)(=O)Nc3cc(C)on3)cc2)cc(OC)c1OC,1e-09,6.5%,i,2%,i
COc1ccc(-c2cc(CCCC(=O)NCCc3ccc(OC)cc3OC)no2)cc1,7.9e-09,1.5%,i,?,i
CO[C@@H]1/C=C\O[C@]2(C)Oc3c(C)c(O)c4c(O)c(c(CN(C)C)c(O)c4c3C2=O)NC(=O)/C(C)=C\C=C[C@@H](C)[C@@H](O)[C@H](C)[C@@H](O)[C@H](C)[C@H](OC(C)=O)[C@@H]1C,1e-09,1.5%[11.5 µM],i,0%[11.4 µM],i
CN(C(=O)C12CC3CC(CC(C3)C1)C2)C1(C)CCS(=O)(=O)C1 (stereo not given),1.5e-08,0.4%,i,?,i
O=C(NCC1CCCO1)C1CCCCN1S(=O)(=O)c1ccc(F)cc1 (stereo not given),1e-09,-1.4%,i,0%,i
COC(=O)CSc1ccccc1C(=O)OC,4e-08,-0.4%,i,-3%,i
O=C(Nc1nc(-c2nc3ccccc3s2)cs1)c1ccc(S(=O)(=O)N2CCOCC2)cc1,2.4e-08,2.4%,i,?,i
COc1cccc(Cn2c(=O)cnc3cnc(Oc4cccc(Cl)c4)nc32)c1,1e-09,4.9%,i,3%,i
CC(C)(/C=N/O)/[N+]([O-])=C/C=[N+](\[O-])C(C)(C)/C=N/O,1.1e-08,-1.9%,i,4%,i
COC(=O)[C@H](CCSC)NC(=O)NC1CCN(Cc2ccccc2)CC1,2.9e-09,1.8%,i,·,i
Cc1[nH]nc2c1C1(CCOCC1)C(C#N)=C(N)O2,1.5e-08,-0.5%,i,20%,i
C=C(C)Cn1c(CCCNC(=O)CCC)nc2ccccc21,1e-09,-1.6%,i,-1%[11.4 µM],i
SMILES,A647 fluor,AID923,Resorufin autofl,TSHR ag,A488 autofl
O=C(NCC1CCNCC1)c1ccncc1,1e-08,0.9%,i,-3%,i
C=CCn1c(=O)n(CCC#N)c(=O)n(CCC#N)c1=O,·,0.9%,·,-6%,·
Cn1c(=O)oc2cc(S(=O)(=O)N3CCCc4ccccc43)ccc21,·,-0.4%,·,1%,·
CN(Cc1ccccc1)S(=O)(=O)c1ccc2c(c1)OCCO2,1e-09,-0.3%,i,8%,i
Cn1c(=O)[nH]c(=O)c2c1nc(NCCCn1ccnc1)n2Cc1ccc(F)cc1,1.4e-08,0.0%,i,-1%,i
COC(=O)c1ccc2c(c1)S(=O)(=O)NC(=NCc1ccco1)S2,2.1e-08,-1.7%,i,5%,i
CNC(=O)NC1CCCc2ccccc21 (stereo not given),·,1.3%,·,1%,·
Cc1ccc2c(=O)c(CN(C)C3CCN(C)CC3)c(C)[nH]c2c1C,1.4e-08,·,i,·,i
CCC(=O)N1CCCc2cc(S(=O)(=O)N3CCN(c4ccccc4F)CC3)ccc21,·,-0.5%,·,?,·
CC(C)CC(NC(=O)C1CCC(C)CC1)C(=O)N1CCN(c2ccccn2)CC1 (stereo not given),·,1.2%,·,5%,·
C=CCN1C(=O)C(O)(CC(=O)c2c(C)n[nH]c2C)c2cc(Br)ccc21 (stereo not given),4.2e-08,-1.4%,i,-4%,i
CC(C)CN1C(=O)NC(NC(=O)c2ccco2)(C(F)(F)F)C1=O (stereo not given),1.9e-08,8.2%,i,?,i
COC(=O)c1ccc(-c2cc(C(=O)O)c3cc4c(cc3n2)OCCO4)cc1,4.4e-08,0.8%,i,14%,i
Cc1cc(NC(=O)c2cnn3cccnc23)no1,1e-09,-1.8%,i,-6%,i
COc1ccc2nc(NC(=O)CN3CCN(C)CC3)sc2c1,1e-09,0.4%,i,3%,i
COc1cc(C)c(C)cc1S(=O)(=O)N1CCN(Cc2ccc3c(c2)OCO3)CC1,1e-08,2.6%,i,·,i
c1ccc(Cn2nnc3c(N4CCCCCC4)ncnc32)cc1,·,3.3%,·,10%,·
CC(C)c1ccc(Nc2nc(NCc3ccco3)nc(N3CCOCC3)n2)cc1,2.5e-08,1.3%,i,?,i
CCOCCCn1c(=N)c(C(=O)NCc2ccc3c(c2)OCO3)cc2c(=O)n3cccc(C)c3nc21,1e-09,?,i,·,i
CCN1CCN(c2c(Cl)cccc2NC(=O)c2ccc(Br)o2)CC1,2.7e-08,1.7%,i,?,i
COc1cc(OC)cc(C(=O)NC(C(=O)NCCN(C)C)C23CC4CC(CC(C4)C2)C3)c1 (stereo not given),1.3e-08,-2.6%,i,12%,i
Cn1c(=O)c2cn(-c3cccc4ccccc34)cc2n(C)c1=O,1e-09,-0.9%,i,20%,i
COc1ccccc1N1CCN(C(c2ccccc2Cl)c2nnnn2C(C)(C)C)CC1 (stereo not given),3.8e-08,-1.5%,i,?,i
CNc1nc(-c2ccc3c(c2)OCO3)nc2ccccc12,1e-09,0.3%,i,?,i
CCC1C(=O)n2nc(-c3ccccc3)cc2N=C1C (stereo not given),1.5e-08,0.5%,i,3%,i
Cn1c(SCC(=O)N2CCCCC2)nc2cccnc21,3.9e-08,0.5%,i,?,i
O=C(CC(Cc1ccccc1)C(=O)O)NCCc1ccc2c(c1)OCO2 (stereo not given),3.6e-08,-0.2%,i,10%,i
Cc1cc(C)n(-c2ccn(Cc3ccc(Cl)cc3Cl)c(=O)n2)n1,3.2e-08,-2.3%,i,?,i

# This is a subset (hit frequency here may not be typical).
